ALR H2O2 inh – human ALR oxidase inhibition via reduced H2O2; 290,000 tested, 3.8% active; inhibition, % (concentration not given with the values); P55789; purified ALR, DTT oxidation, H2O2 HRP-luminol luminescence;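 active = mean and each replicate at 75% or more; inconclusive = only one of the two met; inactive = neither met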;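 note: stock transfer was 7.5 nL into about 7.5 µL; 0% = neutral wells and 100% = wells with inactivated enzyme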
Target sequence (P55789 whole entry, looked up): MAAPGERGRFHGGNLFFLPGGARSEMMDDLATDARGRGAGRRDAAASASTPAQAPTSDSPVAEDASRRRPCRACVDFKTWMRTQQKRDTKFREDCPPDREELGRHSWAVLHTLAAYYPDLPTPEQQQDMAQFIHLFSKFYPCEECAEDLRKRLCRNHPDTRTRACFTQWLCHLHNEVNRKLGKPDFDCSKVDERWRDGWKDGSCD
LANA-H2A inh – blocks KSHV LANA binding to histone H2A/H2B | AID 2629 | 320,000 tested, 0.6% active | Q9QR71 | cell-free LANA-H2A/H2B peptide, fluorescence polarization | inhibition, % (concentration not given with the values); in the data active = inhibition mostly above about 10%, no sharp cut-off; inactive = mostly below about 6.7%;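 note: stock transfer was 7.5 nL into about 10 µL; 0% = median of vehicle wells and 100% = median of positive control wells; one replicate is shown; the record names a cut of 25% in any replicate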
B2AR ag – agonists of human beta-2 adrenergic receptor inducing internalization; Am2.2-beta2AR cells, FAP receptor internalization, flow cytometry; reference of the scale not given here; response, % (concentration not given with the values); 340,000 tested, 0.43% active;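 active = response above a set limit, near 3 SD of response in nonfluorescent compounds, cut at about 42% in these data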;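 note: stock transfer was 100 nL into about 11 µL; a reference agonist was the positive control; negative values mostly stem from fluorescent compounds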
Target sequence (P07550 whole entry, looked up): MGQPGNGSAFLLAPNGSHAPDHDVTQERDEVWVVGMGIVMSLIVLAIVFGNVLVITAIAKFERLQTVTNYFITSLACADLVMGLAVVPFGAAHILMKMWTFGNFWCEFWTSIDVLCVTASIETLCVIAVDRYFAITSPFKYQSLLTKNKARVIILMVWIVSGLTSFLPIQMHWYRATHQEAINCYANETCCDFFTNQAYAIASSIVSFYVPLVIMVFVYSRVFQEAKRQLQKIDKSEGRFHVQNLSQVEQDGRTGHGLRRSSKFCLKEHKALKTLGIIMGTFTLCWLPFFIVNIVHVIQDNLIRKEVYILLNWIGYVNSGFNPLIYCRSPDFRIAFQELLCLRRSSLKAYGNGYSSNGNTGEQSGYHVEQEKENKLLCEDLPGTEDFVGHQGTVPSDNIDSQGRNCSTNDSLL
Bfl-1 A1 inh – inhibitors of the anti-apoptotic protein A1, read as caspase activation | MEF A1-2A-BIM cells, Caspase-Glo 3/7 luminescence, 3 h; percent of clofoctol response, vehicle zero | caspase activation, % (test concentration not listed) | 330,000 tested, 0.066% active | AID 2462;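 active = over half of replicate activation scores above 10%, or exactly half above 10 with the replicate mean above 10; inconclusive = replicate mean below 10 yet half the replicates above 10; inactive = over half of replicates below 10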;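 note: wells of about 30 µL received 50 nL stock; many hits fall short of the cut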
Calb FLC – C. albicans growth modulation with fluconazole; C. albicans CaCi-2 (fluconazole-resistant clinical isolate) + fluconazole, Alamar Blue growth, 48 h; growth inhibition, % (concentration not given with the values); 300,000 tested, 0.57% active; AID 1979;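 active = most replicates above 75%; inconclusive = exactly half above 75%; inactive = most below 75%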;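 note: all wells also contain fluconazole at 8 µg/ml as a sub-toxic cotreatment; 0% = median of DMSO wells and 100% = median of geldanamycin control wells; wells of about 8 µL received 7.5 nL stock; the first replicate is given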
Beta apoptosis – blocks beta cell apoptosis | 300,000 tested, 0.8% active | protection from apoptosis, % (concentration not given with the values) | AID 435005 | INS-1E cytokine-induced death, ATP luminescence, 48 h; percent of positive-control rescue, neutral wells zero;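 active = all replicates at 75% or more, or half of them and the mean; inconclusive = half reach 75% but not the mean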;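 note: 0% = cytokine-treated negative control wells and 100% = positive control rescue; higher means more ATP so stronger rescue from cytokine killing; wells of about 40 µL received 100 nL stock; the first replicate is given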
Ecoli rRNA inh – inhibitors of bacterial rRNA selective over humanized ribosomes; E. coli WT GFP vs humanized-ribosome RFP mutants, fluorescence, 24 h; stronger effect = lower value; DMSO median 0, no signal -100; GFP signal change (wild-type ribosome), % (concentration not given with the values); 350,000 tested, 1.6% active;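 active = significant combined selectivity score with lowered wild-type GFP, culture density cut under 30%, mutant RFP and density less affected; inactive = any of these conditions unmet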; note: one replicate is shown; some compounds called inactive have numbers as strong as hits
T cruzi inh – T. cruzi replication inhibition; T. cruzi beta-gal in NIH3T3, luminescence, 90 h; inhibition, % (no concentration beside the values); 300,000 tested, 1.4% active;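 active = mean inhibition across valid replicates above about 55%, limit read from the data; inconclusive = mean below that limit but half or more replicates reach it; inactive = mean below it, under half of replicates reach it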;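 note: signal also drops with host cell toxicity which is not excluded here; 0% = plate median of DMSO wells and 100% = zero luminescence signal; higher percent means less beta-gal luminescence so fewer parasites; stock transfer was 50 nL into about 50 µL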
Ecoli rRNA inh OD600 – also measured in Ecoli rRNA inh; calls as there; OD600 change, %; measured here: OD600 growth;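 optical density of the mix in the first replicate; 0 = DMSO median and -100 = no signal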
Ecoli rRNA inh RFP – further read-out of Ecoli rRNA inh, marked with its call; RFP signal change, %; measured here: RFP humanized mutant strains;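 first replicate; 0 = DMSO median and -100 = no signal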
* = called active by the depositor; ? = inconclusive; · = not tested or not shown. An excerpt; the hit share may differ from the screen's.

SMILES	ALR H2O2 inh	LANA-H2A inh	B2AR ag	Bfl-1 A1 inh	Calb FLC	Beta apoptosis	Ecoli rRNA inh	Ecoli rRNA inh OD600	Ecoli rRNA inh RFP	T cruzi inh
CCOC(=O)C1=NN(c2ccc(OC)cc2)C2C(=O)N(c3ccccc3OC)C(=O)C12 (centres undefined)	-11	-1.3	-2	-0.9	5	-12	13	7	-0.9	3
C=CCc1ccc(OCCCCNC(C)CC)c(OC)c1 (centres undefined)	1	2.4	3	-0.2	1	-4	·	·	·	3
COc1ccc(C2/C(=C(/O)c3ccc(C)cc3)C(=O)C(=O)N2C)cc1 (centres undefined)	-5	3.1	0	-0.2	2	-2	·	·	·	-10
COc1cccc(NC(=O)C23CCC(C)(C(=O)O2)C3(C)C)c1 (centres undefined)	-5	2.4	-3	-0.1	-3	-8	·	·	·	-1
O=[N+]([O-])c1ccc(N2CCOCC2)cc1N1CCCCC1	-2	4.4	-9	0.4	-24	3	-28	-24	0.2	-9
COC(=O)[C@@H]1OC(=O)[C@H]2O[C@@]23[C@@]1(C)CC[C@@H]1[C@@]2(C)C=CC(=O)OC(C)(C)[C@@H]2CC(=O)[C@]13C	1	2.5	7	0.2	·	-7	2	2	-3.7	·
O=C(CSc1ccc2nnc(-c3cccnc3)n2n1)N1CCOCC1	-4	-1.2	9	1.2	-3	·	6	8	-0.3	3
CC1(C(=O)NCCN2CCOCC2)C=CC2(CCCCC2)N1C(=O)c1ccccc1 (centres undefined)	-11	-2.4	-2	-1.2	-11	-1	-2	9	-5.3	7
Cc1cccc(C)c1NC(=O)CC1SC2=NCCN2C1=O (centres undefined)	2	-2.1	3	0.0	5	5	·	·	·	2
COc1ccc(CN2CCN(Cc3c[nH]c4ccccc34)CC2)cc1	-111	-3.7	4	0.7	·	5	3	3	-0.4	51
Cc1cccc(C2N=C(N)Nc3nc4ccccc4n32)c1 (centres undefined)	-9	-0.7	-7	0.4	-9	-6	6	-1	1.8	17
Cc1cc(NC(=O)c2cc(C3CC3)on2)n(-c2ccccc2)n1	1	-1.1	19	1.4	-6	2	-6	-10	-7.1	-10
O=C(CSc1nnc(NC(=O)Cc2ccccc2)s1)NCC1CCCO1 (centres undefined)	0	-0.1	-4	0.2	-8	·	1	1	-0.3	2
O=S(=O)(O)c1cc2oc(-c3ccccc3)nc2c2ccccc12	1	-4.7	-2	-0.3	6	-6	7	0	3.4	-11
CCCCNC(=O)CN(C1CCCCC1)S(C)(=O)=O	-5	3.2	-2	-0.9	-6	4	·	·	·	-3
COc1ccc(S(=O)(=O)N2CCC(C(=O)NCC3CCCCC3)CC2)cc1	-1	4.8	-8	-0.1	-14	2	-6	-3	-2.2	-14
O=C(COc1ccccc1Cl)Nn1cnnc1	-2	2.9	8	0.3	-4	-3	·	·	·	-8
O=c1cccccc1NN=C1CCCCC1	-9	3.5	3	0.1	-10	-2	13	19	-1.7	-13
CN(C(=O)c1cccs1)c1ccccc1C(=O)O	-2	0.0	-2	-0.2	-3	-5	·	·	·	-17
O=C(Nc1ccc(-c2nc3ccccc3o2)cc1)c1cc(-n2cnnc2)ccc1Cl	1	-0.8	23	-0.5	-4	21	·	·	·	3
COc1cccc(CNC(=O)Cn2nc(C)c3c(C)n(-c4ccc(C)cc4)nc3c2=O)c1OC	0	-3.8	1	-1.1	10	5	2	2	-4.1	-7
O=C(NNS(=O)(=O)c1ccc(F)cc1)c1ccccc1	19	-5.0	36	-0.1	3	2	28	23	-0.4	-1
CCN(CC)S(=O)(=O)c1ccc(N2CCN(c3ccccc3O)CC2)nc1	40	0.9	4	0.0	2	5	17	-3	3.0	12
Cc1ccc(-n2c(=O)c(C#N)cc3c(=O)n4cccc(C)c4nc32)cc1	-2	2.2	-7	-1.4	5	-4	·	·	·	-15
CCCc1cc(C(=O)NCc2ccc(OC)cc2)no1	·	0.7	1	-0.3	-2	-6	0	1	-3.7	-13

The listing continues.
SMILES	ALR H2O2 inh	LANA-H2A inh	B2AR ag	Bfl-1 A1 inh	Calb FLC	Beta apoptosis	Ecoli rRNA inh	Ecoli rRNA inh OD600	Ecoli rRNA inh RFP	T cruzi inh
COc1cccc(/C=C2\N=C(C3CCCCC3)OC2=O)c1OC	-9	-5.0	-7	0.7	1	-5	11	-3	-15	-47
Cn1c(=O)c2c(-c3ccc(C(C)(C)C)cc3)n(N3CCOCC3)cc2n(C)c1=O	-5	0.2	16	0.9	5	6	·	·	·	1
CC(C)(C)C(=O)CN1C(=O)NC2(CCc3ccccc32)C1=O (centres undefined)	-1	0.9	-1	-0.3	-3	3	4	20	0.5	0
Cc1nc2ccccc2n1CC(O)COc1ccccc1Cl (centres undefined)	0	-4.3	3	0.1	0	36	-16	-22	1.1	0
CC1CCC2C(=O)N(c3cccc(OS(=O)(=O)c4ccccc4)c3)C(=O)C2C1 (centres undefined)	-3	1.2	9	-0.5	-7	-1	-20	-33	-8.3	-11
O=C(O)c1cc([N+](=O)[O-])c(Nc2cccc3ccccc23)c([N+](=O)[O-])c1	-15	5.0	1	0.6	27	-10	-23	-17	-10	-6
O=C(NCCc1ccccc1)C1CCCN(S(=O)(=O)c2cccs2)C1 (centres undefined)	1	1.5	-5	0.3	3	-4	-13	-11	-0.1	7
Cc1ccc(C(=O)NCCc2ccc(S(N)(=O)=O)cc2)cc1[N+](=O)[O-]	-1	7.1	8	0.3	3	-1	-1	6	-4.0	-5
CCc1ccccc1N1CC(C(=O)O)CC1=O (centres undefined)	-1	2.9	-4	-0.3	-5	-3	·	·	·	-1
O=C(Nc1ccc(N2C(=O)C3C4C=CC(C4)C3C2=O)cc1)Nc1nncs1 (centres undefined)	7	1.5	2	0.4	-5	-3	-16	-16	-1.9	7
Cc1ccc(F)cc1NC(=O)N1CCNC(=O)C1CC(=O)Nc1cc(Cl)ccc1Cl (centres undefined)	-2	-6.7	4	-0.1	-4	0	-22	-21	-1.9	-2
CCC(=O)N1CCC2(CC1)Oc1ccc(F)cc1C(=O)C21CC(c2cccnc2)=NO1 (centres undefined)	-3	11	-5	0.1	16	-5	2	10	6.7	-16
Cc1nc2c(-c3ccccc3)c[nH]n2c(=O)c1Cc1ccccc1	2	1.6	12	1.8	-4	39	-20*	-11*	-1.4*	62*
CCc1ccccc1NC(=O)/C(C#N)=C/c1ccc(Sc2ccccc2)o1	·	3.9	3	-0.2	2	2	-2	-6	-2.0	7
Cc1c(CC(=O)N[C@@H](C)C(=O)O)c(=O)oc2cc3occ(-c4ccccc4)c3cc12	-3	-2.7	-1	0.1	-14	-5	-4	21	7.4	-7
COC(=O)c1cn(C(=O)c2ccc(F)cc2)c2ccccc12	-1	-2.4	-5	0.0	18	·	4	4	-1.6	-29
CC1(C)CC(=O)c2sc(NS(=O)(=O)c3ccccc3)nc2C1	0	5.4	0	0.7	0	3	23	10	0.0	-14
Clc1ccc(SCc2cc(N3CCOCC3)nc(-c3ccccn3)n2)cc1	0	2.1	-4	-0.1	1	99*	-60	-76	-21	60*
Nc1ccc2oc(-c3cccc4ccccc34)nc2c1	?	-4.4	5	-0.4	53	1	·	·	·	18
CCOC(=O)c1c(C)[nH]c(C(=O)COC(=O)CNC(=O)c2ccc(Cl)cc2Cl)c1C	-1	-2.4	-2	1.4	-19	-3	·	·	·	-8
COc1cc2c(cc1O)[C@@H]1Cc3cc(O)c(OC)cc3[C@H](C2)N1C	49	-1.7	2	-0.8	-3	-1	8	0	0.6	4
CCOc1ccc(-n2nc(C(=O)N3CCN(CC)CC3)c3ccccc3c2=O)cc1	0	0.6	-6	-0.4	-6	-17	·	·	·	-5
COc1ccc(-c2c(-c3cc(OC)cc(OC)c3)n(C)c3ccc(-c4ccc(OC)cc4F)cc23)cc1	-1	4.0	5	-0.3	·	4	3	5	-7.5	·
Cc1ccc(N2CC(C(=O)Nc3nc4ccc(S(C)(=O)=O)cc4s3)CC2=O)cc1C (centres undefined)	-3	-5.3	8	0.4	-1	-9	-6	-17	3.6	-16
O=C(NCc1nnc(SCC(=O)N2CCCC2)o1)c1ccccc1F	-5	0.8	-3	0.7	1	-4	·	·	·	1

(continued)
SMILES	ALR H2O2 inh	LANA-H2A inh	B2AR ag	Bfl-1 A1 inh	Calb FLC	Beta apoptosis	Ecoli rRNA inh	Ecoli rRNA inh OD600	Ecoli rRNA inh RFP	T cruzi inh
COc1cccc2[nH]c3c(N4CCN(Cc5ccc6c(c5)OCO6)CC4)ncnc3c12	-1	-4.7	·	-0.2	-11	41	·	·	·	52
COc1ccc(CC(=O)NCC2(c3ccc(OC)c(OC)c3)CCOCC2)cc1	·	-1.0	-5	0.1	-5	2	20	11	-2.4	7
Cc1n[nH]c(C)c1S(=O)(=O)N1CCN(c2ccccn2)CC1	·	7.6	-1	-0.7	0	-4	·	·	·	-4
O=S(=O)(NCCN1CCOCC1)c1cc(Cl)ccc1Cl	1	-2.2	0	-1.2	6	·	22	15	2.2	0
COc1ccc(Nc2nnc(SCC3CCCCO3)s2)cc1 (centres undefined)	-14	0.4	-6	-2.3	-1	0	-6	-14	-1.8	-13
O=C(N/N=C/c1ccc(OCC(=O)N2CCCCC2)cc1)c1ccccc1	-1	0.2	-6	-0.5	-7	-3	·	·	·	1
O=C(O)/C=C/C(=O)Nc1ccccc1-c1ccccc1NC(=O)/C=C/C(=O)O	-1	2.0	4	-0.2	12	0	4	10	-1.3	-14
COc1cccc(CNC(=O)CCCSc2ccccc2)c1	-8	-1.2	9	-0.2	16	-3	8	2	0.6	-1
CSc1ccc(CN(C)C(=O)c2cc(S(=O)(=O)NCc3ccccc3)ccc2C)cc1	5	-2.2	3	-1.1	-5	0	-13	-32	-1.8	9
CC(C)[C@H](NC(=O)c1ccccc1Cl)C(=O)OCC(=O)Nc1ccc(S(=O)(=O)N2CCOCC2)cc1	-13	-11	-4	0.6	·	-5	3	5	1.5	·
CC1(C)O[C@@H]2[C@H](O1)[C@@H](COS(=O)(=O)O)O[C@H]2n1cc(Br)c(=O)[nH]c1=O	-3	0.0	-9	0.0	·	-10	19	11	5.3	·
Cc1ccc(-n2c(SCC(=O)Nc3cccc(S(=O)(=O)NC4=NCCCCC4)c3)nc3ccccc3c2=O)cc1C	-2	5.8	8	1.0	3	4	·	·	·	13
CC(=O)n1cc([C@H]2C=C(C(=O)N3CCN(Cc4ccccc4)CC3)O[C@@H](OCc3ccc(CO)cc3)C2)c2ccccc21	·	-0.6	3	0.2	-1	18	-1	5	-2.8	68*
CN(C)S(=O)(=O)c1ccc(Cl)c(NC(=O)COc2ccccc2[N+](=O)[O-])c1	3	-8.1	-9	-0.5	-22	-4	6	11	1.0	5
CCN(CC)S(=O)(=O)c1ccc(N2CCCC2)c(NS(=O)(=O)c2ccc(F)cc2)c1	3	-3.0	-4	-0.1	-2	1	-12	-9	5.0	10
O=C(NC1CCCCC1)C(c1ccco1)N(C(=O)c1csnn1)c1cccc(Cl)c1 (centres undefined)	-2	0.4	1	-0.2	2	-2	5	3	-0.4	22

Bioassay records: PubChem, several laboratories
